HPGD inh = HPGD (human) dehydrogenase inhibition | P15428 | purified HPGD, NADH fluorescence kinetic, PGE2 substrate | Potency, µM, for inactives: at the highest dose activity change, negative = inhibition, hits mostly inhibitors | hit rate 4.3% among 150,000 | AID 894; active = well fitted inhibition curve with a large enough effect (not every such curve was filed as active); inconclusive = small, poorly fitted or top-dose-only effect, or another doubt; inactive = no such curve, though single readings can be large or run the other way;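 also: top concentration of the series not given in the record; plate controls included wells without enzyme; inactives centre near -10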
Target sequence (P15428 whole entry, looked up): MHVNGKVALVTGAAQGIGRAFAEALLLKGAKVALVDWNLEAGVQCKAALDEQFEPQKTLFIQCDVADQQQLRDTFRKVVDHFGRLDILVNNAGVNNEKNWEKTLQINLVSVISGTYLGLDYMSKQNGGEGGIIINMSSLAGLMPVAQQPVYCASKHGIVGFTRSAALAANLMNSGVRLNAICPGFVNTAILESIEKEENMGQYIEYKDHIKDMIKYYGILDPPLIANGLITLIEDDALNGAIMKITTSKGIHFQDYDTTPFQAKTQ
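NADH formation kinetics: reaction with 30 uM PGE2 and 1 mM NAD+ (final), 20 nM enzyme, Tris-HCl pH 8 with Tween 20, after 15 min compound preincubation at room temperature. Fluorescence change, last versus first of five reads.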
* marks the source's active call; other numbers are inactive results. % is scaled to controls: 0 for no effect and ±100 for the full control effect; potency is read from the fitted curve at half-maximal effect. An excerpt, so the mix of outcomes need not match the whole.

Results for O=C(Oc1ccc(N(Cc2cccs2)C2=NS(=O)(=O)c3ccccc32)cc1)c1ccco1 ?
HPGD inh: -23%

What do the screens show for `CN(C)c1ccc(NS(=O)(=O)c2ccc(Cl)cc2)cc1`?
HPGD inh: -13%

What do the screens show for `COc1ccc(C2CC(c3c(-c4ccccc4)c4cc(Cl)ccc4[nH]c3=O)=NN2S(C)(=O)=O)cc1OC` (configuration not stated)?
HPGD inh: -13%

What do the screens show for `CC(C)CCNC(=O)C(C)N(Cc1ccc(F)cc1)C(=O)c1ccc(CN2CCCCC2)o1` (configuration not stated)?
HPGD inh: 1%

Results for Cl/C(=C\n1cncn1)c1ccc(Cl)cc1Cl ?
HPGD inh: 14µM*

How did CC(c1n[nH]c(=S)n1-c1ccc(Cl)cc1)N(C)C (configuration not stated) do in these assays?
HPGD inh: -21%

What do the screens show for `COc1ccc(CC(=O)OC(C)CN2CCCC2)cc1` (configuration not stated)?
HPGD inh: -4%

How did Cc1ccccc1C(=O)NC(=S)Nc1sc2c(c1C#N)CCC(C)C2 (configuration not stated) do in these assays?
HPGD inh: -21%

How did CCOC(=O)N1CCN(CC(=O)Nc2c(C(=O)OC)[nH]c3cc(C)ccc23)CC1 do in these assays?
HPGD inh: -20%

What do the screens show for `COc1ccc(-c2nc(-c3ccc4c(c3)OCO4)[nH]c2-c2ccc(OC)cc2)cc1`?
HPGD inh: inconclusive

How did Cc1cc(C(F)F)n2ncc(C(=O)NCCc3ccc(Cl)cc3)c2n1 do in these assays?
HPGD inh: 0%

What do the screens show for `Cc1ccccc1OCCC(=O)Nc1ccc(Cl)cc1F`?
HPGD inh: -16%

What do the screens show for `COc1ccc(Nc2cnn(-c3nc4ccccc4s3)c(=O)c2Cl)cc1`?
HPGD inh: -24%

How did COc1ccc(N2CCN(C(=O)c3ccc(CS(=O)(=O)c4ccc(OC)cc4)o3)CC2)cc1 do in these assays?
HPGD inh: -5%

How did Cc1c(C(=O)Nc2ccc3c(c2)CCC3)cccc1[N+](=O)[O-] do in these assays?
HPGD inh: -26%

How did CCOc1ccc2nc(C(=O)N3CCCC(C)C3)sc2c1 (configuration not stated) do in these assays?
HPGD inh: 7.9µM*

How did CCC/C=C(\CCC)C(NC(=O)c1ccco1)c1ccc(C(=O)OC)cc1 (configuration not stated) do in these assays?
HPGD inh: -18%

Results for COc1ccc2c(CN(C)c3ccccc3)cc(=O)oc2c1 ?
HPGD inh: inconclusive

How did O=C(O)CC(=O)Nc1ccccc1C(=O)O do in these assays?
HPGD inh: -6%

What do the screens show for `CCC(C)(C(=O)NC1CCCC1)N(Cc1ccco1)C(=O)Cc1cccs1` (configuration not stated)?
HPGD inh: -9%

What do the screens show for `Cc1ccc(/C=C/C(=O)C2C(=O)c3ccccc3C2=O)cc1`?
HPGD inh: -13%

Results for COc1ccc(CCNCc2ccc(OCc3ccc(Cl)nc3)c(OC)c2)cc1OC ?
HPGD inh: -6%

How did O=C(CC1CCCCC1)NCC1CCCO1 (configuration not stated) do in these assays?
HPGD inh: 14µM*

How did Cc1cc(C)n2nc(S(=O)(=O)N(C)Cc3ccccc3)nc2n1 do in these assays?
HPGD inh: -4%

Results for CSc1ccc(S(=O)(=O)NC2CCCCC2)cc1 ?
HPGD inh: inconclusive

Results for COc1ccc(N2C(=O)c3ccccc3NC23C(=O)N(C)c2ccccc23)cc1 (configuration not stated) ?
HPGD inh: 0%

How did Cc1ccc(S(=O)(=O)N2CCCC2C(=O)OCc2nc3sc(C)c(C)c3c(=O)[nH]2)cc1 (configuration not stated) do in these assays?
HPGD inh: -21%

What do the screens show for `C/C=C/c1ccc(OCCOc2ccc(C=O)cc2OC)c(OC)c1`?
HPGD inh: -17%

What do the screens show for `Cc1ccc(C(=O)NN2C(=O)/C(=C/c3cccn3C)SC2=S)cc1`?
HPGD inh: -20%

How did Cc1ccc(S(=O)(=O)NNC(=S)NC(=O)c2ccc([N+](=O)[O-])cc2)cc1 do in these assays?
HPGD inh: 28µM*

Arranged by molar mass (descending): part of the list above
How did COc1ccc(N2CCN(C(=O)c3ccc(CS(=O)(=O)c4ccc(OC)cc4)o3)CC2)cc1 do in these assays?
HPGD inh: -5%

How did Cc1ccc(S(=O)(=O)N2CCCC2C(=O)OCc2nc3sc(C)c(C)c3c(=O)[nH]2)cc1 (configuration not stated) do in these assays?
HPGD inh: -21%

Results for COc1ccc(CCNCc2ccc(OCc3ccc(Cl)nc3)c(OC)c2)cc1OC ?
HPGD inh: -6%

How did Cc1ccc(S(=O)(=O)NNC(=S)NC(=O)c2ccc([N+](=O)[O-])cc2)cc1 do in these assays?
HPGD inh: 28µM*

What do the screens show for `CCC(C)(C(=O)NC1CCCC1)N(Cc1ccco1)C(=O)Cc1cccs1` (configuration not stated)?
HPGD inh: -9%

What do the screens show for `COc1ccc(Nc2cnn(-c3nc4ccccc4s3)c(=O)c2Cl)cc1`?
HPGD inh: -24%

How did CCC/C=C(\CCC)C(NC(=O)c1ccco1)c1ccc(C(=O)OC)cc1 (configuration not stated) do in these assays?
HPGD inh: -18%

What do the screens show for `Cc1ccc(C(=O)NN2C(=O)/C(=C/c3cccn3C)SC2=S)cc1`?
HPGD inh: -20%

How did Cc1cc(C)n2nc(S(=O)(=O)N(C)Cc3ccccc3)nc2n1 do in these assays?
HPGD inh: -4%

What do the screens show for `Cc1ccccc1OCCC(=O)Nc1ccc(Cl)cc1F`?
HPGD inh: -16%

How did CCOc1ccc2nc(C(=O)N3CCCC(C)C3)sc2c1 (configuration not stated) do in these assays?
HPGD inh: 7.9µM*

How did Cc1c(C(=O)Nc2ccc3c(c2)CCC3)cccc1[N+](=O)[O-] do in these assays?
HPGD inh: -26%

Results for COc1ccc2c(CN(C)c3ccccc3)cc(=O)oc2c1 ?
HPGD inh: inconclusive

What do the screens show for `Cc1ccc(/C=C/C(=O)C2C(=O)c3ccccc3C2=O)cc1`?
HPGD inh: -13%

Results for CSc1ccc(S(=O)(=O)NC2CCCCC2)cc1 ?
HPGD inh: inconclusive

How did O=C(CC1CCCCC1)NCC1CCCO1 (configuration not stated) do in these assays?
HPGD inh: 14µM*

Carrying on:
What do the screens show for `O=C(CSc1nnc(CN2CCCCCC2=O)n1-c1ccccn1)NCC(F)(F)F`?
HPGD inh: -14%

Results for Cc1cc(-c2nnc3sc(C4CCCCC4)nn23)n[nH]1 ?
HPGD inh: -21%

What do the screens show for `CC(=O)Nc1ccc(N(C(=O)Cc2c[nH]c3ccccc23)C(C(=O)NC2CCCCC2)c2ccco2)cc1` (configuration not stated)?
HPGD inh: 2%

What do the screens show for `O=S1(=O)CCC(N=Cc2cc(Br)ccc2O)C1` (configuration not stated)?
HPGD inh: -8%

What do the screens show for `CC(=O)O[C@H]1CC[C@H]2[C@@H]3CCc4cc(O)ccc4[C@H]3CC[C@]12C`?
HPGD inh: -24%

What do the screens show for `CCOC(=O)C1=C(C)c2ccccc2OC1(C(=O)OCC)C(C)C` (configuration not stated)?
HPGD inh: -10%

Results for CCCn1nc(NC(=O)c2ccccn2)c2cc3cc(C)ccc3nc21 ?
HPGD inh: inconclusive

Results for COCCSc1ccccc1C(=O)Nc1cc(C)on1 ?
HPGD inh: 32µM*

Results for CCOC(=O)c1nn(-c2ccccc2F)c2nc(Nc3ccccc3)cc(=O)n12 ?
HPGD inh: inconclusive

How did CCOC(=O)c1c(C)[nH]c(NC(=O)Nc2c(C)n(C)n(-c3ccccc3)c2=O)c1C do in these assays?
HPGD inh: -1%

Results for CCc1ccccc1NC(=S)/N=C(\N)Nc1nc(C)c2cc(C)ccc2n1 ?
HPGD inh: -21%

Results for CCOc1ccccc1NC(=O)C1CCCN(C(=O)Nc2ccccc2)C1 (configuration not stated) ?
HPGD inh: -2%

What do the screens show for `Cc1ccc(N2CC(C(=O)OCC(=O)C(C)(C)C)CC2=O)cc1` (configuration not stated)?
HPGD inh: -5%

How did Cc1sc2ncnc(N[C@@H](CCC(=O)O)C(=O)O)c2c1C do in these assays?
HPGD inh: -13%

Results for Cc1nnc(NC(=O)CSc2nnc(Cc3cccn3C)n2-c2ccccc2)s1 ?
HPGD inh: -2%

How did CCOC(=O)c1c(NC(=O)c2cc(-c3cccc(O)c3)on2)sc(C(C)=O)c1C do in these assays?
HPGD inh: -7%

Results for Cc1ccc(C(=O)Nc2cccnc2)cc1S(=O)(=O)N1CCOCC1 ?
HPGD inh: -7%

Results for COc1ccc(N2CCN(C(=O)Cc3ncc(C(F)(F)F)cc3Cl)CC2)cc1 ?
HPGD inh: -3%

Results for Cc1ccc(NC(=O)CNc2cccc(C)c2C)c(C)c1 ?
HPGD inh: 32µM*

What do the screens show for `CCC(CC)(CC(=O)Nc1cccc(/C=C/c2nc(C3CCC3)cs2)c1)C(=O)O`?
HPGD inh: inconclusive

Results for COc1cc(OC)cc(C(=O)N/N=C/c2ccc(OC)c(COc3ccc(F)cc3)c2)c1 ?
HPGD inh: inconclusive

Results for CCCc1nc2c(=O)[nH]c3ccccc3c2o1 ?
HPGD inh: inconclusive

How did CC(C)NC(=O)Cn1c(SCC(=O)c2ccc(F)cc2)nc2ccccc21 do in these assays?
HPGD inh: -1%

Results for Nc1ccccc1[N+](=O)[O-] ?
HPGD inh: -6%

Results for c1ccc(-n2cnnc2SCc2cn3cccnc3n2)cc1 ?
HPGD inh: inconclusive

What do the screens show for `CC(=O)Nc1ccccc1/C=C/c1ccc2c(C)ccc(O)c2n1`?
HPGD inh: -13%

What do the screens show for `O=C(O)c1cc(S(=O)(=O)N2CCCCC2)sc1Cl`?
HPGD inh: -1%

What do the screens show for `Cc1cc(C)c(N(C(=O)Cn2nnc3ccccc32)C(C(=O)NC(C)(C)C)c2ccsc2)c(C)c1` (configuration not stated)?
HPGD inh: -5%

What do the screens show for `CCc1cc(=O)oc2cc(OCC(=O)N(CC)CC)c(Cl)cc12`?
HPGD inh: inconclusive

How did CC(c1ccccc1)N1C(=O)c2ccc(C(=O)NCc3ccco3)cc2C1=O (configuration not stated) do in these assays?
HPGD inh: -4%

What do the screens show for `Cc1cc2cc(C(c3nnnn3Cc3ccco3)N3CCc4ccccc4C3)c(=O)[nH]c2cc1C` (configuration not stated)?
HPGD inh: inconclusive

Results for N/N=C(\c1ccccc1)C12CN3CN(CN(C3)C1)C2 ?
HPGD inh: -3%

Results for COc1cc2c(cc1OC)CN(S(=O)(=O)c1cccs1)CC2 ?
HPGD inh: -6%

How did O=S(=O)(Nc1ccc(Cc2ccncc2)cc1)c1ccc(Br)cc1 do in these assays?
HPGD inh: -11%

What do the screens show for `O=c1[nH][nH]c(C(F)(F)F)c1C=Nc1ccccc1Cl`?
HPGD inh: -4%

How did Cc1[nH]c2ccccc2c1/C=N/NC(=O)Cc1cccs1 do in these assays?
HPGD inh: -14%

Results for FC(F)(F)c1nc2ccccc2c2nc3ccccc3n12 ?
HPGD inh: inconclusive

What do the screens show for `CCOc1ccc(CCNC(=O)C2CCN(S(=O)(=O)CC)CC2)cc1OCC`?
HPGD inh: -6%

Results for Oc1c(C(c2ccc(F)cc2)N2CCc3ccccc3C2)sc2ncnn12 (configuration not stated) ?
HPGD inh: inconclusive

How did O=C(Nc1nnc(-c2ccco2)s1)C1CCCCC1 do in these assays?
HPGD inh: -16%

What do the screens show for `CCOc1ccccc1C1C(C(=O)Nc2ccccc2OC)=C(C)Nc2nc(CCCO)nn21` (configuration not stated)?
HPGD inh: -7%

Results for CCN(CC)CCCNC(=O)CC1Oc2ccc(C)cc2NC1=O (configuration not stated) ?
HPGD inh: -3%

What do the screens show for `Cn1cccc1Cc1nnc(SCC(=O)NCc2ccc(F)cc2)n1-c1ccc(F)cc1`?
HPGD inh: -5%

What do the screens show for `C[N+](C)(C)CC=O`?
HPGD inh: -7%

Results for COc1ccc(S(=O)(=O)N/N=C\c2ccc3c(c2)OCO3)cc1 ?
HPGD inh: -2%

Results for Fc1ccccc1-c1csc(=Nc2cccnc2)n1CC1CCCO1 (configuration not stated) ?
HPGD inh: -27%

Results for Clc1ccc(-c2ccnc(Oc3ccc4ccccc4c3)n2)cc1 ?
HPGD inh: -11%

Results for Cc1ccc(OCC(=O)Nc2cccc(S(=O)(=O)N3CCCCC3)c2)c([N+](=O)[O-])n1 ?
HPGD inh: -17%

What do the screens show for `O=C1N/C(=C/c2cccn2-c2ccc(F)cc2)C(=O)N1Cc1ccccc1`?
HPGD inh: -17%

Results for CC1(OC(=O)CCc2ccccc2)C(=O)C=C2C=C(c3ccc(C#N)cc3)N(Cc3ccco3)C=C2C1=O (configuration not stated) ?
HPGD inh: -10%

Results for CCOc1ccc(OCC)c(NC(=O)CCCN2C(=S)NC(C)(C)CC2C)c1 (configuration not stated) ?
HPGD inh: -7%

How did O=C(c1ccco1)N1C(=O)c2cccc3cccc1c23 do in these assays?
HPGD inh: inconclusive

Results for CN(C(=O)C1CCCO1)c1nnc(-c2ccncc2)s1 (configuration not stated) ?
HPGD inh: 10%

How did N#Cc1cc2c(nc1SCc1ccccc1)CCCC2=O do in these assays?
HPGD inh: -21%

How did CCCOc1ccc(NC(=O)C2OC3OC(C)(C)OC3C3OC(C)(C)OC23)cc1 (configuration not stated) do in these assays?
HPGD inh: -8%

Results for Cc1ccc(NC(=O)CSc2nnc(-c3cccs3)n2Cc2ccco2)cc1 ?
HPGD inh: 4%

How did Cc1cn([C@H]2C[C@H](N=[N+]=[N-])[C@H](CO)O2)c(=O)[nH]c1=O do in these assays?
HPGD inh: -16%

How did NC(=O)COC(=O)c1ccc(S(=O)(=O)N2CCCCCC2)cc1 do in these assays?
HPGD inh: -8%

Results for CCOC(=O)N=S(N)(=O)c1ccc(Cl)cc1 (configuration not stated) ?
HPGD inh: -4%

Results for CCOc1ncccc1C(=O)OCc1ccc(C#N)cc1 ?
HPGD inh: -3%

Results for CCCc1cc(=O)oc2cc(OCc3cccc(OC)c3)c(Cl)cc12 ?
HPGD inh: -4%

What do the screens show for `COc1ccc(CNC(=O)Nc2cccc(C)c2)cc1`?
HPGD inh: -1%

Results for O=C(CSc1nnc(-c2ccco2)n1-c1ccccc1)NCc1ccco1 ?
HPGD inh: -4%

High-throughput results: PubChem, National Center for Advancing Translational Sciences (NCATS)
